# Bioassay records deposited in PubChem BioAssay by Fisher Drug Discovery Resource Center.
# NPYLR7 ag: mosquito NPYLR7 agonism | HEK293T NPYLR7/Galpha15, GCaMP6s calcium fluorescence | activation, % at 10 µM | 0.15% of 270,000 active | AID 1259423; in the data active means activation above about 40%;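 further: 0% = vehicle and 100% = reference agonist at the receptor; some compounds past the cut are filed as inactive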
# NPYLR7 ag max-min: second read-out of NPYLR7 ag, no call of its own (marks repeat the call); activation, %; measured here: Max-Min RFU normalised activation; some inactives read as strong as hits;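 span of the calcium signal over five minutes; 0% = vehicle and 100% = native peptide agonist; compound fluorescence can raise it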
# * = called active by the depositor. Some of the compounds tested; the hit share may differ from the screen's.
# Value order: NPYLR7 ag max-min	NPYLR7 ag
Cc1nc(C2CC2)ncc1C(=O)NCc1nccn1Cc1ccccc1
 : 0	0
CCn1cc(C(=O)Nc2cccnc2)c2nn(-c3ccccc3)c(=O)c-2c1
 : 7	10
COCCn1ccnc1CN1CCN(C(=O)c2ccccc2)CC1
 : 2	14
C[C@H](NC(=O)N1CCc2c([nH]c3ccccc23)C1c1ccccc1F)c1ccccc1 (stereo not given in full)
 : -11	-5
CNC(=O)CC1Nc2cc(C)c(C)cc2NC1=O (stereo not given)
 : -1	3
O=C(Nn1cnc2c(cnn2-c2cccc(Cl)c2)c1=O)c1ccc2c(c1)OCO2
 : 3	9
CC(C)CCNCC(O)CON=C1c2ccccc2-c2ccccc21 (stereo not given)
 : -3	-2
CCOCCCN(CC(=O)N(Cc1ccccc1)Cc1sccc1C)C(=O)Nc1c(Cl)cccc1Cl
 : -7	0
CN(C)c1ccc(NC(=O)CSc2nc(N)c(C(=O)Nc3nccs3)s2)cc1
 : -18	-9
Cc1c(C(=O)NNc2ccccc2C(F)(F)F)ncn1Cc1ccc(Cl)cc1
 : 1	5
Cc1nc(NCCNC(=O)c2cccc(C(F)(F)F)c2)cc(-n2cccn2)n1
 : -12	-7
O=C(c1cccc(Br)c1)N1CCC(N2CCCCC2)CC1
 : -12	-6
CCOC(=O)CCC(=O)N1CCN(c2nc(-c3cccc(F)c3)nc(C)c2C)CC1
 : 8	-3
O=c1[nH]c(CN2CCN(S(=O)(=O)c3cccc(Cl)c3)CC2)nc2sc3c(c12)CCC3
 : 5	8
CC(=O)NNc1nc(Cl)nc(N(C)C)n1
 : -2	-1
CC(=O)Nc1n[nH]c(-c2ccc(C)cc2)n1
 : 0	1
CC(NC(=O)c1cc(NC(=O)Nc2ccc(C(F)(F)F)cc2)ccc1N1CCCC1)c1ccccc1 (stereo not given)
 : 9	3
CCc1nc2n(n1)C(=O)C(C(c1ccco1)N1CCN(CCO)CC1)S2 (stereo not given)
 : -7	-5
CC=CCn1c(=O)c2c(nc3n(CCN4CCOCC4)c(C)c(C)n23)n(C)c1=O
 : 5	1
COc1cccc(CO[C@]2(C(=O)NCC3CCCO3)CC(OCc3cccc(F)c3F)[C@H](O)[C@H](O)C2)c1 (stereo not given in full)
 : -3	-11
CCn1ccnc1-c1c(-c2ccccc2)ncn1CCN1CCOCC1
 : 0	-1
COc1cccc2c1OC(c1ccc(F)cc1F)NC2=O (stereo not given)
 : -1	1
CN1C(=S)N(c2ccc(Oc3ccccc3)cc2)C(=O)/C1=C\c1cccc(OCCO)c1
 : 1	3
NC(N)=NC(N)=Nc1ccccc1F
 : -4	-1
Cc1ccc(CCNC(=O)C2CCCCC2C(=O)N2CCc3c([nH]c4ccccc34)C2)cc1 (stereo not given)
 : -4	6
COCCCN(Cc1c(-c2ccccc2)noc1N1CCCCC1C)C(=O)NC(C)C (stereo not given)
 : 12	10
O=C(NC1CCC(NC(=O)[C@H]2CCCN2S(=O)(=O)c2ccc(Cl)cc2)CC1)c1ccccc1 (stereo not given in full)
 : -1	-1
CC(Sc1nncn1C)C(=O)N(C)c1ccccc1 (stereo not given)
 : -3	-2
Cc1c(Cc2ccccc2)sc(N)c1C(N)=O
 : 6	-1
CCN(CC)C(=O)Oc1ccc2c(ccn2Cc2cc(C(F)(F)F)ccc2C(F)(F)F)c1-c1ccc(F)c(Cl)c1
 : 4	16
CN(C)C(=O)c1csc(I)c1
 : -3	-2
CCN(CC)c1ccc(CN2CCCn3cccc3C2c2cc(OC)c(OC)c(OC)c2)cc1 (stereo not given)
 : 21	16
COc1ccc(Br)cc1CCC(=O)Nc1n[nH]c(C)n1
 : 5	9
CN(C)c1ccc(N2C(=O)CSC2c2cccc(NC(=O)c3ccc(Cl)c(Cl)c3)c2)cc1 (stereo not given)
 : 6	-7
COc1ccc(-c2nnc(NC(=O)C(C)NC(=O)COc3ccccc3)s2)cc1 (stereo not given)
 : 7	-1
Cc1cc(C(=O)NCc2cccnc2Oc2ccccc2)nn1C
 : 6	6
Cc1cnc(NC(=O)c2cccc(CN(C)Cc3ncccc3C)c2)s1
 : 2	6
Cc1cc(C(=O)NCC(O)c2ccc(F)c(F)c2)ccc1N1CCNC1=O (stereo not given)
 : -9	-9
Cc1cc(CCC(=O)Nc2nn[nH]n2)ccc1Br
 : -4	-4
COCCCN(CC(=O)N1CCc2sccc2C1c1ccc(Cl)cc1Cl)C(=O)/C=C/c1ccc([N+](=O)[O-])cc1 (stereo not given)
 : -2	-3
CCCc1ccc(OCC(=O)c2ccc3c(c2)N(CC(=O)NC2CCCCC2)C(=O)CO3)cc1
 : 3	6
Cc1cccc(-c2noc(N3CCOCC3)c2CNCC2CC2)c1
 : 26	24
Cc1nc(CCC(=O)N2CCCC3(C2)C(=O)Nc2ccccc23)n[nH]1 (stereo not given)
 : -1	2
CC(C)c1ccc(C(=O)N2CCCN(CC3CC3)C(C(C)C)C2)c(=O)n1C (stereo not given)
 : 5	8
COc1cc2c(cc1CN1CCCC1c1ccccn1)OCCCO2 (stereo not given)
 : 7	8
CCCC(=O)Nc1ccc(-c2cccc(-c3cccc(OC)c3)n2)cc1
 : 2	1
O=C(Cn1cnc([N+](=O)[O-])n1)N/N=C\c1ccc(O)cc1O
 : -18	-11
O=C(NCc1cccnc1Oc1cccc(C(F)(F)F)c1)[C@H]1CCCN1
 : -1	5
CCCCOc1ccc(C(=O)N2CCC3(CC2)C(=O)N(CC(=O)NCc2ccco2)CN3c2ccccc2)cc1
 : 6	1
Cc1nc(Nc2ccccc2C(F)(F)F)sc1C(=O)N(C)C
 : 6	10

# The list goes on.
# Value order: NPYLR7 ag max-min	NPYLR7 ag
Cc1nc2ncc3c(=O)n(-c4ccccc4F)ccc3n2n1
 : 7	2
CN(C)S(=O)(=O)CCNC1CCN(c2ccc3c(c2)CCC3)CC1
 : 4	6
COc1ccc(S(=O)(=O)Nc2ccc3cn[nH]c3c2)cc1[N+](=O)[O-]
 : -3	-2
Fc1ccc(-c2c[nH]c(=S)n2Nc2ccccc2Cl)cc1
 : 10	5
Cn1c(=O)c2c(nc(CN3CCN(c4ccccc4)CC3)n2CCN2CCOCC2)n(C)c1=O
 : 18	0
CCOC(=O)c1cnn(-c2cc(C)nc3c(-c4ccccc4)c(CC)nn23)c1N
 : 3	1
O=c1[nH]c2cc(Cl)ccc2nc1Cc1ccc2ccccc2n1
 : -2	0
O=C(NC1CCCCC1)C1CCC(CNc2c(N3CCOCC3)c(=O)c2=O)CC1 (stereo not given)
 : 7	6
COC(=O)c1cc2occc2n1Cc1cc(=O)n2ccccc2n1
 : 2	3
Cc1cccc2c(=O)n(CC(=O)N3CCN(C(=O)CCC4CCCC4)CC3)cnc12
 : 2	6
O=C(Nc1cccc(Cl)c1)N1CCCC(OCc2ccccc2F)C1 (stereo not given)
 : -6	-8
CN1C(=S)N(CCCN2CCOCC2)C(=O)/C1=C/c1ccc(N(C)C)cc1
 : 55*	60*
NC(=O)C1CCCN(c2ccc(NC(=O)c3ccc(Cl)o3)cn2)C1 (stereo not given)
 : -5	-6
Cc1cc2nc(-c3cc(NC(=O)c4cccc(Cl)c4)ccc3O)oc2cc1C
 : 10	12
O=C1c2ccccc2C(=O)N1CN(C(=O)c1ccccc1[N+](=O)[O-])c1ccc(F)cc1
 : -14	-12
CCOc1ccc(N(CC(=O)N[C@@H]2C[C@H]3CC[C@@H]2C3)S(=O)(=O)c2ccc(SC)cc2)cc1
 : -13	-9
CCCCn1c(N)c(N(CC(C)C)C(=O)C2CCCC2)c(=O)[nH]c1=O
 : 1	-2
CCOC(C)C(=O)Nc1nn(-c2ncccn2)cc1Br (stereo not given)
 : 1	0
CCOc1cccc(CNC2CCCc3c2cnn3-c2cc(F)cc(F)c2)c1O (stereo not given)
 : 8	8
COc1ccc(N2CCN(c3cc(C(=O)NCc4cccc(C)c4)c4ccccc4n3)CC2)cc1
 : 3	15

# Next part; the last four above are carried over.
# Value order: NPYLR7 ag max-min	NPYLR7 ag
CCCCn1c(N)c(N(CC(C)C)C(=O)C2CCCC2)c(=O)[nH]c1=O
 : 1	-2
CCOC(C)C(=O)Nc1nn(-c2ncccn2)cc1Br (stereo not given)
 : 1	0
CCOc1cccc(CNC2CCCc3c2cnn3-c2cc(F)cc(F)c2)c1O (stereo not given)
 : 8	8
COc1ccc(N2CCN(c3cc(C(=O)NCc4cccc(C)c4)c4ccccc4n3)CC2)cc1
 : 3	15
c1ccc(N=P(N2CCOCC2)(N2CCOCC2)N2CCOCC2)cc1
 : 1	2
COc1ncccc1C(=O)N1CCOc2ccc(C(O)C(c3ccccc3)c3ccccc3)cc2C1 (stereo not given)
 : -5	1
CSC1CCCC1N(C)CC(=O)N1CCCC(C(F)(F)F)C1 (stereo not given)
 : 3	4
CCOC(=O)c1c(NC(=O)Cn2cnc([N+](=O)[O-])n2)sc2c1CCC(C)C2 (stereo not given)
 : -28	-22
COc1ccc(S(=O)(=O)NCCc2sc3nc(-c4ccc(C)cc4)nn3c2C)cc1C
 : -2	1
N=C(N)N1CCN(S(=O)(=O)C=Cc2ccccc2)CC1
 : 14	1
O=c1[nH]nc(CCc2ccccc2)n1-c1ccc2c(c1)OCO2
 : -1	-1
Cc1cc(NCC2CCCO2)n2ncc(-c3ccccc3Cl)c2n1 (stereo not given)
 : 5	3
Cc1nc(N(C)C2CCCCC2)ncc1C(C)NC(=O)c1ocnc1C (stereo not given)
 : 8	18
CSc1ccc(CN(C(=O)CN(C)C2CCS(=O)(=O)C2)C2CC2)cc1 (stereo not given)
 : 10	10
Cn1c(-c2ccccc2Cl)nn(CN2CCN(CC(=O)N3CCCCCC3)CC2)c1=S
 : 9	4
COc1cccc(CC(=O)N(Cc2ccncc2)Cc2nc3cc(C)ccc3o2)c1
 : -3	1
COc1ccc(Cl)c2sc(N(CCN(C)C)C(=O)c3ccc([N+](=O)[O-])s3)nc12
 : 6	10
CSc1ccccc1C(=O)Nn1cnc2c(cnn2-c2ccccc2)c1=O
 : 22	24
Cc1nc(CN2CCCC(NCc3cc4ccccc4o3)C2)no1 (stereo not given)
 : -7	-4
CCC(C)(CCCNC(=O)Nc1cccc(F)c1)C1OCCO1 (stereo not given)
 : 4	8
CC(/C=C1\N=C(c2ccccc2)OC1=O)=C\c1ccccc1
 : -3	-2
CC(C)(C)OC(=O)N1CCC(C(=O)N2CCN(S(=O)(=O)c3ccccc3Cl)CC2)CC1
 : -3	-5
C=CCn1c(=O)c2c(nc3n(-c4ccc(O)cc4)c(C)cn23)n(C)c1=O
 : -3	3
Cc1cc(C(=O)N(Cc2ccccn2)c2nc3ccccc3s2)n(C)n1
 : 6	6

# Complete entries from above. Screens in order: NPYLR7 ag max-min	NPYLR7 ag
# Cc1cc(C(=O)N(Cc2ccccn2)c2nc3ccccc3s2)n(C)n1 as listed: 6	6
# C=CCn1c(=O)c2c(nc3n(-c4ccc(O)cc4)c(C)cn23)n(C)c1=O as listed: -3	3

# The list continues.
# Value order: NPYLR7 ag max-min	NPYLR7 ag
CC(C)CN1CC(C(=O)Nc2cc(Br)ccc2Sc2nnnn2C)CC1=O (stereo not given)
 : 7	-1
CCOC(=O)C1(C/C=C/c2ccccc2)CCCN(C(=O)c2ccc3c(c2)no[n+]3[O-])C1 (stereo not given)
 : 4	13
Nc1nc(-c2ccc3c(c2)OCCO3)cs1
 : -5	-2
COc1ccc(CC2CN(C(=O)c3cccc(-c4ncc[nH]4)c3)CCO2)cc1 (stereo not given)
 : 2	7
CC(C(=O)N1CCCC(C(=O)NC2CC2)C1)c1ccc(Cl)s1 (stereo not given)
 : -26	-26
CC(C(=O)Nc1sccc1C(N)=O)N1CCN(c2ccccc2O)CC1 (stereo not given)
 : 3	3
O=C(Oc1coc(CSc2ncccn2)cc1=O)c1cc([N+](=O)[O-])ccc1Cl
 : -13	-12
Cc1ccc(/C=C/S(=O)(=O)Nc2c(C(N)=O)sc3ccccc23)cc1
 : -1	2
O=C(Cc1ccc2c(c1)OCCO2)N1CCCC1c1ccsc1 (stereo not given)
 : 8	7
COc1ccc2nc(N(Cc3cccnc3)C(=O)c3ccc(Cl)s3)sc2c1
 : -16	-16
CNc1cncc(-c2ccc(NS(C)(=O)=O)cc2)n1
 : 3	7
COCCOC(=NCCN1CCOCC1)NC(=O)c1ccc2c(c1)OCO2
 : 9	3
COc1ccc(C(=O)Nc2ccc(C#N)cc2)cc1F
 : 1	2
CCOc1cccc2sc(=NC(=O)c3nc4ccccc4s3)n(CC)c12
 : 0	3
CCOC(=O)N1CCN(C(=O)c2ccc(N3CCC(NCCn4nc(C)cc4C)CC3)cc2)CC1
 : 3	19
Cc1noc(C)c1C(=O)N1CCC1(C)C(=O)NS(=O)(=O)Cc1cccc(Cl)c1 (stereo not given)
 : -1	-2
O=S(=O)(c1ccc(F)cc1Cl)N1CCn2c1nc1ccccc12
 : -2	-2
COc1ccc(-c2csc(-n3[nH]c(C)c(N=Nc4cccc([N+](=O)[O-])c4C)c3=O)n2)cc1
 : -3	6
Cc1ccnc(NC(=O)CC2CSc3nc(C)cc(=O)n32)c1 (stereo not given)
 : -3	-3
CCc1nc2n(n1)C(=O)C(C(c1ccc(Cl)c(Cl)c1)N1CCC3(CC1)OCCO3)S2 (stereo not given)
 : -8	-2
COCc1[nH]nc(N)c1-c1ccc(Cl)cc1
 : -4	1
COc1ccc(C(=O)Oc2ccccc2NC2=NS(=O)(=O)c3ccccc32)cc1OC
 : -4	-1

# Part of the list above in order of heavy-atom count, largest number first:
# Value order: NPYLR7 ag max-min	NPYLR7 ag
CC=CCn1c(=O)c2c(nc3n(CCN4CCOCC4)c(C)c(C)n23)n(C)c1=O
 : 5	1
CCn1ccnc1-c1c(-c2ccccc2)ncn1CCN1CCOCC1
 : 0	-1
CSC1CCCC1N(C)CC(=O)N1CCCC(C(F)(F)F)C1 (stereo not given)
 : 3	4
N=C(N)N1CCN(S(=O)(=O)C=Cc2ccccc2)CC1
 : 14	1
